# Bioassay records deposited in PubChem by several laboratories.
# RecA intein inh: inhibitors of M. tuberculosis RecA intein splicing | inhibition, %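 (about 9 µM by stock and volumes)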 | P9WHJ3 | 0.75% of 290,000 active | cell-free RecA intein splicing, fluorescence; in the data active means inhibition above about 30%; inconclusive means no clear call, values can overlap the other calls;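 further: 0% = vehicle wells and 100% = reference inhibitor control wells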
# Target sequence (P9WHJ3 whole entry, looked up): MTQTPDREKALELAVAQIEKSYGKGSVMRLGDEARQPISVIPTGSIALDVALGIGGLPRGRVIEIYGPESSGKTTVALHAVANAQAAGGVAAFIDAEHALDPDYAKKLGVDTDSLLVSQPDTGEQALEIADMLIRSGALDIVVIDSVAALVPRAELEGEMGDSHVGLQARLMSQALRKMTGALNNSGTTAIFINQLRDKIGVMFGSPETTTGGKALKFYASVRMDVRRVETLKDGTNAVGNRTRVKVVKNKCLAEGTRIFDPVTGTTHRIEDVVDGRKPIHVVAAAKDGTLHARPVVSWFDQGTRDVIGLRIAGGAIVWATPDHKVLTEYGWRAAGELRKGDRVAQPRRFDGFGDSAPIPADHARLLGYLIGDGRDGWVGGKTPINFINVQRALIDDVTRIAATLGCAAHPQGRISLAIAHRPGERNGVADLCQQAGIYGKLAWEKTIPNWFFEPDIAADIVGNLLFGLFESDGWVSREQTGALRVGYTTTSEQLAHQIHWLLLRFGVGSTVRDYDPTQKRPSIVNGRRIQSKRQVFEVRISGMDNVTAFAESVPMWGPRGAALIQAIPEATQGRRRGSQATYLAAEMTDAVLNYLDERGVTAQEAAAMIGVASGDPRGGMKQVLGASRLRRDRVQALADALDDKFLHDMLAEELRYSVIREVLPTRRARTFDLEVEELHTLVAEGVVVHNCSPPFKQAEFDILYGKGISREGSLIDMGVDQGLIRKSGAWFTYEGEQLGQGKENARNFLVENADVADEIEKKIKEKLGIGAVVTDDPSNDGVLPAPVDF
# YopH inh: blocks Yersinia enterocolitica YopH tyrosine phosphatase; fluorescence Ex485/Em525; inhibition, %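 (about 10 µM by stock and volumes)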; 0.16% of 140,000 active; AID 898;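 active means inhibition of 50% or more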;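 further: controls were vehicle for no effect and minimum signal wells for full effect; inactives centre near -20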
# Mtb growth: M. tuberculosis H37Rv growth inhibitors, H37Rv strain (AID 1626); M. tuberculosis H37Rv growth inhibition; higher % means a stronger effect; inhibition, % at 10 µM; hits with a dose series show IC50 in µM; 0.95% of 220,000 active;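 active means confirmed in a dose series; inconclusive means inhibition above 80% but not taken into the dose series; inactive means below 80% or under 30% at every dose of the series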;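 further: bacteria incubated seven days before Alamar blue readout; 0% = bacteria only wells and 100% = bacteria with antibiotic wells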
# Mtb betalactam: beta-lactam sensitization of Mtb H37Rv | 0.27% of 330,000 active | M. tuberculosis H37Rv growth with meropenem, percent inhibition; hits of this screen are not shown here | inhibition, % at 25 µM;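 active means about 74% or more and at least 40 points above the plate without the antibiotic, then above 30% in a dose series; inconclusive means first-round hits that could not be retested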;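 further: growth measured after seven days incubation then overnight dye step; 0% = bacteria only wells and 100% = bacteria with antibiotic; twin plates without the antibiotic show which effects depend on it; some results filed as inactive read as strong as hits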
# Arbovirus inh: arbovirus infection inhibition; arbovirus infection cell-based antiviral screen; inhibition, % at 10 µM; 0.37% of 200,000 active; AID 1251;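 active means inhibition from about 30%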;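 further: bluetongue infection of BSR cells; cell survival read as ATP light after 72 h; 0% = infected wells without compound and 100% = uninfected wells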
# Arbovirus inh repeat: further read-out of Arbovirus inh, marked with its call; inhibition, %; measured here: 10K subset replicate screen; many hits read low in the repeat;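 first of two repeat runs on a subset; 0% = infected and 100% = uninfected wells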
# An asterisk follows results filed as active; u = inconclusive; x = not tested or not shown. Only part of the results is shown, so the mix of outcomes need not match the whole.
SMILES,RecA intein inh,YopH inh,Mtb growth,Mtb betalactam,Arbovirus inh,others
CC1(C)Cc2cccc(OCC(=O)N3CCN(S(=O)(=O)c4ccc(F)cc4)CC3)c2O1,2.5,-19,-10%,-3,-1,
O=C(Cn1nnc2ccccc21)OCC(=O)c1ccc(Cl)c(Cl)c1,x,-17,-1%,1,-4,
CC(C)NC(=O)c1ccccc1NC(=O)Cc1ccc([N+](=O)[O-])cc1,-5.5,x,4%,-6,4,
CCC(NC(=O)Cc1c(C)c2c(cc(C)c3c(C)c(C)oc32)oc1=O)C(=O)O (stereo not given),-8.1,x,x,-7,x,
Cc1ccc2nc(/C(C#N)=C\c3ccc(Oc4ccc(C(F)(F)F)cc4[N+](=O)[O-])cc3)[nH]c2c1,-3.8,-29,0%,5,2,
COc1ccc(/C=N/Nc2nonc2N)c(OC)c1,3.2,x,63%,64,-4,
COc1ccc(NC2CCCN(C(=O)CCN3CCOCC3)C2)cc1 (stereo not given),-1.2,x,x,0,x,
CC1(C)CC(=O)c2c(nc(SCC(=O)Nc3nsc(-c4ccccc4)n3)c(C#N)c2-c2ccccc2)C1,2.5,-4,8%,13,-25,
CCc1cccc(NC(=S)N(CCN(C)C)C(C)c2ccncc2)c1 (stereo not given),-2.4,x,-3%,0,x,
COc1ccccc1N1CCN(C2CC(=O)N(C)C2=O)CC1 (stereo not given),-1.8,x,-2%,3,0,
CCCOC(=O)C1C2c3ccccc3C(c3ccccc32)C1C(=O)O (stereo not given),-1.3,x,-13%,0,5,
CC1CCc2cc(F)ccc2N1C(=O)CSc1nnc(-c2cccs2)n1C (stereo not given),-0.1,-9,-10%,7,-1,
CC(=O)Nc1ccc(OC(=O)c2cc3ccccc3oc2=O)cc1,4.9,-40,-4%,-9,-9,
C/C(=N\N=C(/N)SC1CC(=O)N(c2cccc(Cl)c2)C1=O)c1cccs1 (stereo not given),8.1,-39,x,16,-1,
Clc1cccc(OCCn2ccnc2)c1,-1.1,x,x,-3,x,
CCc1nc(N2CCCC2C(=O)O)c2oc3ccccc3c2n1 (stereo not given),-0.9,-37,5%,-4,8,
COc1cccc(NC(=O)c2cc(S(=O)(=O)N3CCc4ccccc43)cn2C)c1,-1.4,x,x,-11,x,
COc1ccc(C2C(C(=O)c3ccco3)=C(O)C(=O)N2CCN2CCOCC2)cc1 (stereo not given),-0.2,x,x,-2,x,
CCOC(=O)CC(NC(=O)Cn1nnc(-c2ccccc2Cl)n1)c1ccc(OC)cc1 (stereo not given),-2.9,x,10%,-4,1,
O=C1OC2(CCCC2)OC(=O)C1=Cc1c[nH]c2ccccc12,-0.7,x,2%,14,-2,

# A draw from above in order of number of heavy atoms, falling.
SMILES,RecA intein inh,YopH inh,Mtb growth,Mtb betalactam,Arbovirus inh,others
COc1ccc(NC2CCCN(C(=O)CCN3CCOCC3)C2)cc1 (stereo not given),-1.2,x,x,0,x,
COc1ccccc1N1CCN(C2CC(=O)N(C)C2=O)CC1 (stereo not given),-1.8,x,-2%,3,0,
COc1ccc(/C=N/Nc2nonc2N)c(OC)c1,3.2,x,63%,64,-4,

# Other records follow.
SMILES,RecA intein inh,YopH inh,Mtb growth,Mtb betalactam,Arbovirus inh,others
COC(=O)[C@H](C)NC(=O)Nc1cc(OC)ccc1OC,-0.8,-1,-1%,0,8,
COCCn1c(Cc2ccccc2)nnc1SCC(=O)Nc1ccccc1,-11,x,-5%,-7,-3,
Cc1ccc(-n2nnnc2Sc2nc([N+](=O)[O-])nn2C)cc1C,7.1,-8,7.2µM*,100,-13,
N=c1c2c(-c3ccccc3)c(-c3ccccc3)n(Cc3ccccc3)c2ncn1CCCn1ccnc1,11,-27,u,100,-44,
Cc1nc(NC(=O)/C=C/c2ccc(Cl)cc2Cl)sc1C(=O)N(C)C,1.7,-15,1%,-7,-1,
Cc1ccccc1SCC(=O)OCC(=O)Nc1ccc(N(C)C)cc1,-3.7,x,5%,0,4,
NS(=O)(=O)c1ccc(NC(=O)CN2CCCCC2)cc1,-1.9,-37,-3%,-13,1,
O=C(Nc1nc2ccc(F)cc2s1)c1cccc(S(=O)(=O)N2CCc3ccccc32)c1,2.8,-23,13%,u,10,
O=C(CCCn1c(=O)c2sccc2n(CC(=O)NCC2CCCO2)c1=O)NCc1ccco1 (stereo not given),-0.8,x,-3%,-3,-1,
NC(=S)N=Nc1c(O)n(Cc2ccccc2)c2ccccc12,0.5,-26,2%,1,-7,
COc1ccc(Cl)cc1NC(=S)N(CCCN1CCOCC1)Cc1cn(C)c2ccccc12,-6.6,-13,-1%,-3,-5,
CCOc1ccc(OCC(=O)Nc2ccc(N3CCCCC3)cc2)cc1,-2.7,x,x,-1,x,
NNC(=O)c1cc2ccccc2cc1O,-9.4,-22,34%,-5,-30,
O=C(OCC(=O)N1CCN(C(=O)c2ccco2)CC1)c1ccccc1Cc1ccccc1,4.7,-17,3%,-4,2,
CC(N)Cc1cn(Cc2ccccc2)c2ccccc12 (stereo not given),0.3,x,x,-1,x,
COc1ccc([N+](=O)[O-])cc1NC(=O)CCS(=O)(=O)c1ccc(Br)cc1,1.1,x,x,-1,x,
O=C(OCCOc1ccc(Br)cc1)c1ccc(Cl)c(S(=O)(=O)N2CCOCC2)c1,-1.8,x,x,-2,x,
CCCCc1cc(=O)oc2cc(C)cc(OCC(=O)NCCN3CCOCC3)c12,-4.0,x,x,3,x,
Cc1ccc(-c2nnn(CC(=O)N(c3ccccc3F)C(C(=O)NC3CCCC3)c3ccncc3)n2)o1 (stereo not given),1.3,x,x,-4,x,
COc1ccc(N2CCN(C(=O)CSc3ncnc4c3cnn4-c3ccccc3C)CC2)cc1,1.2,-29,5%,2,-7,
N#Cc1nc(COc2ccccc2Cl)oc1N1CCCC1,-1.2,x,6%,18,6,
O=C1COc2ccc(C(=O)CCl)cc2N1,32*,x,-14%,x,x,
CC(C)(C(N)=O)N1CCN(c2ncc(C(F)(F)F)cc2Cl)CC1,7.7,-4,1%,-12,5,
CC(=O)N1CCN(C(=O)c2oc3ccccc3c2C)CC1,0.3,x,x,2,x,
Cc1cc2c(cc1S(=O)(=O)Nc1cccc(F)c1C)NC(=O)CO2,2.0,x,1%,5,6,
CC1(C)CC(=O)c2sc(NS(=O)(=O)c3ccc(Br)cc3)nc2C1,-1.5,x,1%,-8,6,
O=C(CN1C(=O)NC2(CCCC2)C1=O)Nc1cc(Cl)ccc1N1CCOCC1,0.7,x,x,2,x,
CC(=O)c1ccc(OC(=O)c2cccs2)cc1,35*,7,5%,22,-5,
O=C(Nc1ccc(Cl)cc1Cl)NC1CCCC1,-1.2,x,2%,-1,4,
Cc1cc(C)c2c(n1)nn1c(N3CCN(c4ccccc4)CC3)cc(C)nc21,-19,-26,-1%,5,-13,
CCOC(=O)CN1C(=O)CSc2ccc(S(=O)(=O)N3CCCC3)cc21,-0.8,x,3%,-3,x,
CN(CC(=O)Nc1ccc(S(N)(=O)=O)cc1)C1CCCCC1,-1.0,x,x,-1,x,
COc1ccc(Cc2noc(CN3CCN(Cc4cccc(Cl)c4)CC3)n2)cc1OC,0.9,x,6%,-8,13,
CCOc1ccc(NC(=O)CCSc2ccc(C)cc2)cc1,-1.7,-26,u,97,1,
COC(=O)C1CCN(C(=O)NC2CC(=O)N(c3ccc4c(c3)OCCO4)C2)CC1 (stereo not given),-1.3,x,x,-6,x,
Cc1ccc(Nc2c(-c3ccc(C)o3)nc3cnccn23)cc1,-8.1,9,4%,29,-3,
CS(=O)(=O)c1ccc(Cl)c(NC(=O)c2cc(=O)[nH]c3ccc(S(=O)(=O)N4CCOCC4)cc23)c1,-0.2,x,x,-3,x,
c1ccc(-c2nc(Sc3ncnc4c3cnn4-c3ccccc3)n[nH]2)cc1,32*,-25,x,93,13,
CN(CC(=O)Nc1ccccc1Cl)C(=O)CSc1nc2ccccc2s1,-4.4,-22,5%,12,7,
COCCn1c(SCC(=O)NCc2cccs2)nnc1-c1ccc(OC)cc1,1.0,-11,3%,0,2,
COC(=O)C1=C(CN2CCN(C)CC2)NC(=O)NC1c1cc(C)ccc1C (stereo not given),1.1,-29,-6%,0,13,
CC(C)=CC(=O)OCc1cc([N+](=O)[O-])cc2c1OCOC2,0.9,x,4%,5,-3,
CN(C)C(=O)Oc1ccc(OCc2n(C)c3ccccc3[n+]2C)cc1,-6.6,-25,-3%,9,3,
Cc1ccccc1OCC(=O)Nc1sc2c(c1C#N)CCC2,2.9,-6,-4%,-1,-4,
COc1ccc(C)cc1NC(=O)CNC(=O)[C@@H]1Cc2ccccc2CN1,-3.2,x,x,-1,x,
O=C(CSc1nnc2c(n1)[nH]c1ccccc12)Nc1nncs1,-2.9,x,x,3,x,
Cc1nc(NC(=O)C2CC2)sc1C(=O)Nc1ccccc1,-0.8,x,x,4,x,
O=c1cccc2n1CC1CC2CN(c2ncnc3c2cnn3-c2ccccc2)C1 (stereo not given),-1.1,-16,3%,-8,1,Arbovirus inh repeat=-3
CN(/N=C/c1ccco1)C1=NS(=O)(=O)c2ccccc21,-18,x,10%,5,-5,
C=CCOC(=O)C1=C(C)NC(=O)NC1c1cc(Cl)cc(Cl)c1OC (stereo not given),0.4,x,x,5,x,

# Among those listed so far, these contain a Cl atom:
SMILES,RecA intein inh,YopH inh,Mtb growth,Mtb betalactam,Arbovirus inh,others
O=C(Cn1nnc2ccccc21)OCC(=O)c1ccc(Cl)c(Cl)c1,x,-17,-1%,1,-4,
C/C(=N\N=C(/N)SC1CC(=O)N(c2cccc(Cl)c2)C1=O)c1cccs1 (stereo not given),8.1,-39,x,16,-1,
Clc1cccc(OCCn2ccnc2)c1,-1.1,x,x,-3,x,
CCOC(=O)CC(NC(=O)Cn1nnc(-c2ccccc2Cl)n1)c1ccc(OC)cc1 (stereo not given),-2.9,x,10%,-4,1,
Cc1nc(NC(=O)/C=C/c2ccc(Cl)cc2Cl)sc1C(=O)N(C)C,1.7,-15,1%,-7,-1,
COc1ccc(Cl)cc1NC(=S)N(CCCN1CCOCC1)Cc1cn(C)c2ccccc12,-6.6,-13,-1%,-3,-5,
O=C(OCCOc1ccc(Br)cc1)c1ccc(Cl)c(S(=O)(=O)N2CCOCC2)c1,-1.8,x,x,-2,x,
N#Cc1nc(COc2ccccc2Cl)oc1N1CCCC1,-1.2,x,6%,18,6,
O=C1COc2ccc(C(=O)CCl)cc2N1,32*,x,-14%,x,x,
CC(C)(C(N)=O)N1CCN(c2ncc(C(F)(F)F)cc2Cl)CC1,7.7,-4,1%,-12,5,
O=C(CN1C(=O)NC2(CCCC2)C1=O)Nc1cc(Cl)ccc1N1CCOCC1,0.7,x,x,2,x,
O=C(Nc1ccc(Cl)cc1Cl)NC1CCCC1,-1.2,x,2%,-1,4,
COc1ccc(Cc2noc(CN3CCN(Cc4cccc(Cl)c4)CC3)n2)cc1OC,0.9,x,6%,-8,13,
CS(=O)(=O)c1ccc(Cl)c(NC(=O)c2cc(=O)[nH]c3ccc(S(=O)(=O)N4CCOCC4)cc23)c1,-0.2,x,x,-3,x,
CN(CC(=O)Nc1ccccc1Cl)C(=O)CSc1nc2ccccc2s1,-4.4,-22,5%,12,7,
C=CCOC(=O)C1=C(C)NC(=O)NC1c1cc(Cl)cc(Cl)c1OC (stereo not given),0.4,x,x,5,x,
